# TRPML1 blocker = blocks the human TRPML1 channel | 390,000 tested, 0.02% active | AID 624415 | activity change, negative = inhibition, % (concentration not given with the values) | TRPML1-inducible cells, Ca2+ dye fluorescence, FDSS; stronger effect = lower value; inhibition of EC80 agonist-evoked calcium signal | Q9GZU1; in the data active means activity change below about -50%; inconclusive means about -30% to -50%; inactive means above about -30%;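 further: stimulus is agonist 54-4 at its EC80 concentration; on the % scale 0 is the no-effect control and ±100 the full control effect; compound concentration not given in the record; the text of the record puts the active cut at -80%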
#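 Tet-induced TRPML1-DL cells loaded with Ca8 no-wash calcium dye were read kinetically on FDSS. Compound addition was followed by EC80 agonist 54-4 (4 uM final); inhibition was read over 110 s.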
# Sfp inh = blocks B. subtilis Sfp PPTase activity. Q9F4F7. 310,000 tested, 3.5% active. Biochemical Sfp PPTase activity, qHTS. Potency, µM, for the others: max response, negative = inhibition, actives largely listed as inhibitors; active means well fitted inhibition curve with a large enough effect; inconclusive means small, poorly fitted or top-dose-only effect, or another doubt; inactive means no such curve, though single readings can be large or run the other way;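 further: the enzyme is Sfp with the accession as filed and its product quenches rhodamine fluorescence; potency means the concentration at half of the fitted maximal effect; 0% = enzyme reaction without inhibitor and -100% = no enzyme wells; top concentration of the series not given in the record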
#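 Fluorescence-quenching assay with 15 nM Sfp, 5 uM rhodamine-CoA and 12.5 uM BHQ-2-labelled ybbR peptide in pH 7.6 Hepes/MgCl2 buffer. Enzyme was pre-incubated with compound for 15 min at room temperature. Rate was taken from the 30-min fluorescence change (525/598 nm).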
# Menin-MLL FL inh = displaces fluorescein MLL peptide from human menin; FP activity change, % at 61.4 µM; 290,000 tested, under 10 active; Fluorescence polarization, fluorescein-MLL peptide displacement from menin; inconclusive = falling polarisation curve, or a change in total fluorescence; inactive = total fluorescence flat and polarisation flat or rising; no compound was filed as active; the % refers to the polarisation; negative = inhibition;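 further: % of control where 0% means no effect; inhibitors lower the polarisation; unlabelled MLL peptide was the positive control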
# TRPML1 agonist = human mucolipin-1 channel agonism. TRPML1-expressing cells, Ca2+ dye fluorescence, FDSS; host cell line not named in the record; reference of the full effect not given here. Q9GZU1. 410,000 tested, 0.12% active. activation, % (test concentration not listed); in the data active = activation above about 50%; inconclusive = about 30% to 50%; inactive = below about 30%; further: 0% is about no effect; the text of the record puts the active cut at 80%
#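 Tet-induced TRPML1-DL cells, 1,500 per well, cultured overnight, were loaded with a no-wash Ca2+ dye for 45–90 min. Calcium fluorescence was recorded on the FDSS for 110 s after compound addition, before the EC80 agonist (4 uM 54-4) was added.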
# ClpP mod = qHTS Assay for Activators of ClpP; Potency, µM (titrated, usually from 57.5 µM), without a hit: at the top dose activity change, negative = active; purified B. subtilis ClpP, FRET peptide cleavage, 20 min; AID 651965, 2013; 340,000 tested, 1.9% active; active = well fitted falling curve with a large enough effect; inconclusive = small, poorly fitted or top-dose-only effect; inactive = no such curve, though single readings can be large or run the other way; further: potency means the concentration at half of the fitted maximal effect; the source files actives as falling curves though it sought activators and does not explain the sign; nearly all actives have a fitted effect of over 65% in size; many hits overshoot -100%
# Target sequence (P80244 whole entry, looked up): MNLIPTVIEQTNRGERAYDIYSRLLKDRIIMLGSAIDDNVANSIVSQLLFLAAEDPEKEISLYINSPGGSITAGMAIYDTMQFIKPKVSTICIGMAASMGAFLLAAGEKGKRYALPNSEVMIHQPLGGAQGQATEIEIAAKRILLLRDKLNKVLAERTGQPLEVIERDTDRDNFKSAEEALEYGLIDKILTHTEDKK
#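 ClpP 10 microg/mL final, pH 8 Tris/KCl buffer with BSA, glycerol, Tween-20; compound pinned in; FRET-FV substrate; RT 20 min; Ex320/Em430; ΔFRET vs ADEP 5.8 microM, DMSO, no enzyme.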
# PINK1 modulator = changes PINK1 expression; Potency, µM (top dose mostly 76.6 µM), without a hit: at the highest dose activation (PINK1 increase), most hits filed as activators; PINK1 immunofluorescence, high-content cytometry, 24 h; 410,000 tested, 0.2% active; AID 624263; active = well fitted activation curve with a large enough effect; inconclusive = small, poorly fitted or top-dose-only effect; inactive = flat fitted curve, though single readings scatter; cell line not stated here;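 further: potency means the concentration at half of the fitted maximal effect; % of control where 0% means no effect; nearly all actives have a fitted effect of over 65% in size; a mitochondrial uncoupler was the plate control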
#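 PINK1 protein level read as immunofluorescence by microplate cytometer in a fixed, stained stable cell line after 24 h exposure to five compound concentrations, with CCCP as control.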
# TRPV1 PAM = enhances activation of the human vanilloid receptor TRPV1. Q8NER1. TRPV1-expressing cells, Fluo-8 calcium influx, capsaicin EC20 potentiation; host cell line not named in the record; control for the full effect not named in the record. potentiation, % at 8.33 µM. 320,000 tested, 0.02% active. AID 540277; active means potentiation above 80%; inconclusive means 30% to 80%; inactive means below 30%; further: 0% is about no effect
# Target sequence (Q8NER1 whole entry, looked up): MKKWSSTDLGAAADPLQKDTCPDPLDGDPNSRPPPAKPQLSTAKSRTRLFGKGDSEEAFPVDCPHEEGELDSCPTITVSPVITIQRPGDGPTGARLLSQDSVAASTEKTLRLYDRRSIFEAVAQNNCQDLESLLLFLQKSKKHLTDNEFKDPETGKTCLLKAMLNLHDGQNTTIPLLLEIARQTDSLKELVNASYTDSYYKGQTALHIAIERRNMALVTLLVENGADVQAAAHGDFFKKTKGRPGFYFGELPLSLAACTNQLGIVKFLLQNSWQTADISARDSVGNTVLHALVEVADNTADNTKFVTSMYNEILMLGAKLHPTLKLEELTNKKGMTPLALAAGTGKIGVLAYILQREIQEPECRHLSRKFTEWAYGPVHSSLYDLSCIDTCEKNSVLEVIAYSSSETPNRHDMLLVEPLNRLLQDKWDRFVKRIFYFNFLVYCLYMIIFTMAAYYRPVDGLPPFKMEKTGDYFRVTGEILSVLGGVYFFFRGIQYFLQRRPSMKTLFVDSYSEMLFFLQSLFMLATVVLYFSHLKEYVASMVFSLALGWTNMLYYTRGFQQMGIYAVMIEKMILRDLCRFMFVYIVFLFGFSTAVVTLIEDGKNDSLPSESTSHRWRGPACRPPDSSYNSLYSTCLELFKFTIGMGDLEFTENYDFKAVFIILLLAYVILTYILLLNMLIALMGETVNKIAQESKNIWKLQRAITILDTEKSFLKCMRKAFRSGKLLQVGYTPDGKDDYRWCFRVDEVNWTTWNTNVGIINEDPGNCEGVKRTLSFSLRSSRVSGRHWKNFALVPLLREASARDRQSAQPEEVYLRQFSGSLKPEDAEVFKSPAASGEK
#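 Fluo-8 calcium influx in TRPV1-expressing cells, kinetic read (ex 480/em 520 nm). Compound added and read 3 min for agonist activity, followed by capsaicin at EC20 final and 2 min further read for enhancement.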
# * hit, by the source's call; ? = inconclusive; · = no result given; & = joins results of further samples; [ ] = another dose, or the depositor's remark. Hits appear at their usual frequency. Share with any hit: about 4.4%.
molecule,TRPML1 blocker,Sfp inh,Menin-MLL FL inh,TRPML1 agonist,ClpP mod,PINK1 modulator,TRPV1 PAM
Cc1ccc(NC(=O)C2CC2c2ccccc2)c([N+](=O)[O-])c1 (configuration not stated),-4,-11%,-0.8,1.4,·,2.7%,-10
CCOC(=O)c1ccccc1NC(=O)CSc1nnc(Cc2cccn2C)n1-c1ccc(C)cc1,-5,-17%,-0.3,-0.5,10%,-4.2%[38.3 µM],-9
CC(C)(C)n1nc2c(c1NC(=O)COc1ccc(F)cc1)CS(=O)(=O)C2,23,10%,·,-0.4,-3.0%,-0.1%,5
Cc1ccccc1CN(c1ccc(C(=O)NCc2cccnc2)cc1)S(C)(=O)=O,-14,24%,6.1,3.6,0.4%,-1.0%,12
COc1ccc(OCC(O)CN(CC(O)COc2ccc(OC)cc2)c2cccc(O)c2)cc1 (configuration not stated),10,5%,·,0.1,-1.5%,0.5%,?
Cc1cc(SCC(=O)N(C)C2CCCCC2)nc2ccccc12,-7,·,·,0.2,-2.7%,2.7%,·
COc1ccc(NC(=S)NC(=O)CC(C)C)c(OC)c1,-5,7%,0.7,1.2,·,0.5%,-1
CCOc1cc(CNC(=O)Cn2ncn3c(cc4cc(F)ccc43)c2=O)cc(OCC)c1OCC,1,·,·,-1.3,-3.5%,1.6%,·
NC(=O)c1cc2nc(-c3ccco3)cc(C(F)(F)F)n2n1,-12,-6%,0.0,-0.1,?,-0.2%[38.3 µM],4
CCCc1[nH]n(-c2nc3ccccc3s2)c(=O)c1C=NCC(C)C,12,-4%,0.5,-0.3,0.4%,1.1%,7
CC(OC(=O)c1ccc2c(c1)S(=O)(=O)c1ccccc1C2=O)C(N)=O (configuration not stated),-4,0%,-0.3,-0.5,·,-0.6%,-5
O=c1ccc2cc3c4c(c2o1)CCCN4CCC3,-9,-5%,?,?,3.9%,-0.8%,-6
Cc1ccc(Cl)cc1NC(=O)c1cnc(N2CCCCC2)c2ccccc12,-5,·,·,0.1,?,1.5%,·
Cn1nc(C(F)(F)F)c(/C=N/OCc2c(Cl)cccc2Cl)c1Cl,16,-4%,5.5,2.7,0.1%,21%,·
COc1cc(NS(=O)(=O)c2ccc(NC(=O)c3ccc(S(=O)(=O)N4CCCC4)cc3)cc2)ncn1,·,23%,-0.9,·,·,·,13
O=C(NC1CCCCC1)N(Cc1cc2cc3c(cc2[nH]c1=O)OCCO3)C1CCCCC1,21,1%,-2.6,1.0,?,8.5%[38.3 µM],-14
CC1=C(C(=O)N2CCCCCC2)CC(CC(=O)NCc2cccc3ccccc23)C(=O)N1CCC1=CCCCC1 (configuration not stated),·,·,·,-0.8,-0.7%,4.3%,·
COc1cc(CN2C[C@@H](CO)O[C@@H](n3cnc4c(NCC(C)C)ncnc43)C2)cc(OC)c1OC,·,·,·,-0.1,1.9%,0.3%,·
NC(=O)Nc1ccc(C(=O)OCC(=O)c2c[nH]c3ccccc23)cc1,-10,·,·,0.6,·,-1.0%,·
Cc1ccc2ccc[n+](Cc3ccccc3)c2c1,11,·,·,-0.7,-22%,1.3%,-47
COc1ccc(N2C(=O)CC(SCc3ccc(Cl)cc3)C2=O)cc1 (configuration not stated),2,15%,0.9,0.8,-0.6%,0.1%,0
COc1ccc(C(=O)COC(=O)CNC(=O)c2cc(OC)cc(OC)c2)cc1,0,8%,-1.2,0.1,-3.0%,-1.3%,-16
COc1ccc(OC)c(N2C(=O)c3ccccc3C2c2nnnn2-c2ccc3c(c2)OCCO3)c1 (configuration not stated),·,·,·,-0.3,0.4%,4.5%,·
CN(C)S(=O)(=O)c1ccc(NC(=O)CCNC(=O)c2ccc([N+](=O)[O-])cc2)cc1,16,6%,2.0,-0.7,·,-4.1%,12
CCS(=O)(=O)N1CCC(C(=O)NCCCOC)CC1,-12,27%,0.6,0.6,0.1%,-0.9%[38.3 µM],20
Cc1ccc(N2CC(C(=O)NCCS(=O)(=O)N3CCN(c4ccccc4)CC3)CC2=O)cc1C (configuration not stated),19&-19,29%,4.1,1.2&0.6,0.1%&1.4%,-0.1%&0.7%,-7
CCCCN(CCCC)CC(O)CN(c1cc([N+](=O)[O-])ccc1OC)S(=O)(=O)c1ccccc1 (configuration not stated),79,-6%,-0.2,2.4,-2.0%,11%,-4
CCCCOc1ccc(CSc2ncn[nH]2)cc1,13,3%,-0.1,0.3,5.7%,0.0%,19
O=C(NC(=S)NCCN1CCOCC1)c1ccccc1Br,-8,3%,-3.0,-0.3,25µM*,3.0%,4
COc1cc(/C=N/N2CCN(c3ccc(Cl)cc3)CC2)cc(OC)c1OC(C)=O,-3,3%,-1.8,-1.0,-0.5%,2.0%,-3

# Reformatted: three of the compounds above.
> CCOC(=O)c1ccccc1NC(=O)CSc1nnc(Cc2cccn2C)n1-c1ccc(C)cc1
- TRPML1 blocker = -5
- Sfp inh = -17%
- Menin-MLL FL inh = -0.3
- TRPML1 agonist = -0.5
- ClpP mod = 10%
- PINK1 modulator = -4.2%[38.3 µM]
- TRPV1 PAM = -9
> CC(C)(C)n1nc2c(c1NC(=O)COc1ccc(F)cc1)CS(=O)(=O)C2
- TRPML1 blocker = 23
- Sfp inh = 10%
- Menin-MLL FL inh = ·
- TRPML1 agonist = -0.4
- ClpP mod = -3.0%
- PINK1 modulator = -0.1%
- TRPV1 PAM = 5
> Cc1ccccc1CN(c1ccc(C(=O)NCc2cccnc2)cc1)S(C)(=O)=O
- TRPML1 blocker = -14
- Sfp inh = 24%
- Menin-MLL FL inh = 6.1
- TRPML1 agonist = 3.6
- ClpP mod = 0.4%
- PINK1 modulator = -1.0%
- TRPV1 PAM = 12

# Remaining list, next part:
molecule,TRPML1 blocker,Sfp inh,Menin-MLL FL inh,TRPML1 agonist,ClpP mod,PINK1 modulator,TRPV1 PAM
O=C(CCC(=O)NNC(=O)c1ccc([N+](=O)[O-])cc1)NCc1ccccc1,1,10%,38[activator],-0.2,·,-0.8%,4
S=C(NCCc1ccncc1)Nc1ccccc1,-6,14%,-0.3,-0.4,·,0.3%,-9
CCCc1[nH]nc2c1C(c1ccc(Br)s1)C(C#N)=C(N)O2 (configuration not stated),10,-17%,-0.1,0.4,-9.0%,-4.3%,7
Cc1ccc2cccc(NC(=S)NC(=O)c3ccccc3)c2n1,-5,?,5.5,-0.2,3.0%,2.1%,10
O=C(CSc1nnnn1-c1ccccc1)NCc1ccco1,-9,0%,2.3,-0.2,-0.4%,-1.4%,10
O=C(NCCOc1ccc(F)cc1)C1CCC(=O)N(Cc2ccc(Cl)cc2)C1 (configuration not stated),12,·,·,0.1,3.6%,-1.3%,·
Cc1nc2cnc(Oc3cccc(Cl)c3)nc2n(C2CC2)c1=O,·,4%,10,·,·,0.7%,·
c1ccc(-c2cccs2)nc1,-5,19%,-4.9,0.5,·,0.1%,-1
O=S(=O)(NCC1CCN(S(=O)(=O)c2ccccc2)CC1)c1ccccc1,7,-2%,4.1,-1.0,-1.3%,-5.2%,-4
CO/N=C/C(=N\Nc1ccc(C)cc1)C(=O)c1ccc(OC)cc1,-17,?,4.8,0.1,64%,11%,-10
Cc1cc(=O)oc(C)c1C(=O)NCCC(C)C,-8,20%,-3.7,0.3,0.3%,3.6%[38.3 µM],15
O=C(Nc1ccccc1C(F)(F)F)c1ccsc1,-9,1%,-1.9,-0.5,0.7%,5.7%,-6
CCC(C)(C)n1nnnc1C(c1ccncc1)N1CCC(Cc2ccccc2)CC1 (configuration not stated),-2,1%,0.3,-0.8,0.2%,2.6%,-5
CN(CC(=O)Nc1c(Cl)cccc1Cl)C(=O)c1cc2ccccc2cc1O,-14,·,·,2.0,·,9.9%,-3
Cc1cc(C)c(C)c(S(=O)(=O)Nc2ccc(C(=O)N3CCCC3)cc2)c1C,-11,-4%,-2.9,0.1,0.8%,2.1%,3
O=C(CCc1ccccc1)NC1CCCc2ccccc21 (configuration not stated),6,-10%,2.0,1.6,0.3%,1.0%,-18
COc1ccccc1OCC(=O)NCCNC(=O)COc1ccccc1OC,1,14%,1.1,4.9,-2.0%,-0.8%[38.3 µM],5
C[C@H]1O[C@@H](O[C@H]2CC[C@@]3(C)C(CC[C@]4(C)C3C=CC3=C5CC(C)(C)CC[C@]5(CO)[C@H](O)C[C@]34C)[C@]2(C)CO)[C@H](O)[C@@H](O[C@@H]2O[C@H](CO)[C@@H](O)[C@H](O)[C@H]2O)[C@H]1O (some centres not stated),6,·,·,-0.9,2.1%,-0.3%,·
CCOc1ccc(S(=O)(=O)NC(C)C(=O)NC2CCCC2)cc1 (configuration not stated),3,3%,·,0.1,-0.9%,1.4%,8
COCCn1nnnc1C(c1ccc(O)c(OC)c1)N1CCc2ccccc2C1 (configuration not stated),-17,14µM*,3.3,0.7,-7.4%,-2.7%,-30
OCCC1CN(Cc2cccn2-c2ncccn2)CCN1CCc1ccccc1 (configuration not stated),-1,24%,1.7,-0.4,·,-0.6%,1
CCOC(=O)C1=C(COC(=O)c2cc(OC)c(OC)c(OC)c2)NC(=O)NC1C (configuration not stated),4,·,·,1.7,2.7%,0.7%,-10
CCOc1ccccc1NC(=O)CCNC(=O)N1CC(=O)Nc2ccccc21,-3,·,·,-0.6,0.4%,0.0%,·
Cc1ccc(-c2c[n+](=O)c3c(n2[O-])CCC3)cc1,1,-3%,5.4,-0.1,-0.1%,0.0%,-1
Cc1cc(=O)[nH]c2c1c(-c1ccccc1)nn2C,-12,5%,5.6,-0.5,-27%,-0.4%,3
COC(=O)COc1ccc(C2Nc3c(Cl)ccc(C(=O)O)c3C3C=CCC32)cc1 (configuration not stated),-1,10µM*,?,0.0,·,0.4%,-3
CCOc1ccc2nc(NC(=O)Nc3ccccc3)sc2c1,-15,6%,-2.6,2.5,-4.3%,3.5%,-3
Cc1ccc(S(=O)(=O)N2CCC(C(=O)Nc3ccc(Oc4ccccc4)cc3)CC2)cc1,22,·,·,0.7,-3.9%,-0.7%,·
COc1ccc(N2CCN(CC(=O)NC(=O)NC(C)(C)C)CC2)cc1,-13,9%,0.8,0.0,0.2%,0.2%,20
CC(NC(=O)COc1ccc(N(C)S(=O)(=O)c2ccccc2)cc1)c1ccccc1 (configuration not stated),10,2%,3.1,2.2,-0.6%,1.2%,-16
CCOc1ccc(C(=O)N2CCCC2C(=O)O)cc1 (configuration not stated),-4,8%,6.0,2.1,1.8%,3.7%[38.3 µM],0
Cc1csc(NC(=O)c2ccc(-c3ccc(Cl)cc3Cl)o2)n1,20,1%,7.6,1.9,·,?,-19

# From PubChem BioAssay
